T cruzi inh – T. cruzi replication inhibition; hit rate 1.4% among 300,000; T. cruzi beta-gal in NIH3T3, luminescence, 90 h; AID 1885; inhibition, % (no concentration beside the values);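 active = mean inhibition across valid replicates above about 55%, limit read from the data; inconclusive = mean below that limit but half or more replicates reach it; inactive = mean below it, under half of replicates reach it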;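 also: signal also drops with host cell toxicity which is not excluded here; 0% = plate median of DMSO wells and 100% = zero luminescence signal; higher percent means less beta-gal luminescence so fewer parasites; stock transfer was 50 nL into about 50 µL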
A1 inh – inhibitors of the anti-apoptotic protein A1, read as caspase activation | caspase activation, % (concentration not given with the values) | MEF A1-2A-BIM cells, Caspase-Glo 3/7 luminescence, 3 h; percent of clofoctol response, vehicle zero | AID 2462 | hit rate 0.066% among 330,000;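 active = over half of replicate activation scores above 10%, or exactly half above 10 with the replicate mean above 10; inconclusive = replicate mean below 10 yet half the replicates above 10; inactive = over half of replicates below 10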;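 also: wells of about 30 µL received 50 nL stock; many hits fall short of the cut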
Calb FLC – C. albicans growth modulation with fluconazole; C. albicans CaCi-2 (fluconazole-resistant clinical isolate) + fluconazole, Alamar Blue growth, 48 h; growth inhibition, % (no concentration beside the values); hit rate 0.57% among 300,000;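 active = most replicates above 75%; inconclusive = exactly half above 75%; inactive = most below 75%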;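 also: all wells also contain fluconazole at 8 µg/ml as a sub-toxic cotreatment; 0% = median of DMSO wells and 100% = median of geldanamycin control wells; wells of about 8 µL received 7.5 nL stock; the first replicate is given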
Ecoli rRNA inh – inhibits bacterial ribosomal RNA function over humanized ribosomes; AID 720706; E. coli WT GFP vs humanized-ribosome RFP mutants, fluorescence, 24 h; hits give low values; DMSO median 0, no signal -100; GFP signal change (wild-type ribosome), % (no concentration beside the values); hit rate 1.6% among 350,000;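 active = significant combined selectivity score with lowered wild-type GFP, culture density cut under 30%, mutant RFP and density less affected; inactive = any of these conditions unmet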; also: one replicate is shown; some compounds called inactive have numbers as strong as hits
AF4-AF9 inh – MLL-AF4/AF9 protein interaction inhibition | inhibition, % at 10 µM | AID 651704 | hit rate 0.47% among 350,000 | P42568 | AlphaScreen, biotin-AF4 peptide binding to FLAG-AF9;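 active = every replicate reaching a set inhibition limit, whatever the replicate mean, cut at about 25% in these data; inconclusive = mean inhibition reaches that limit but some replicates miss it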;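 also: 0% = plate neutral control median and 100% = total signal loss; the record names both 10 and 1 µM as test concentration; the first replicate is given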
Target sequence (P42568 whole entry, looked up): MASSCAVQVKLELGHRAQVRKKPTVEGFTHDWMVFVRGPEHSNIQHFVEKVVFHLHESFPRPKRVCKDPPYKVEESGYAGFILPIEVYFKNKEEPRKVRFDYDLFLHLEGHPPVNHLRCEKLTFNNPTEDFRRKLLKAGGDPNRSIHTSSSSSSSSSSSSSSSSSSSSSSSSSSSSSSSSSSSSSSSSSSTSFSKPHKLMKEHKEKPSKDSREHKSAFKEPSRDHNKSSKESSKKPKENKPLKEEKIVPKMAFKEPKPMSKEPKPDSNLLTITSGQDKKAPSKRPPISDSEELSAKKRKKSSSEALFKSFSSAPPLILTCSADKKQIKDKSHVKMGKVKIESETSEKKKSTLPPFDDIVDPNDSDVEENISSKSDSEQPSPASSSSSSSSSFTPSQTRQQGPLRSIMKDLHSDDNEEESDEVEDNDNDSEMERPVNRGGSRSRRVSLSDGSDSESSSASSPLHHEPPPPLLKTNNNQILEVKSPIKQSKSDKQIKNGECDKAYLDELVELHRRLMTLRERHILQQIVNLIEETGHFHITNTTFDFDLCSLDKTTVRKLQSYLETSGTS
Beta apoptosis – beta cell apoptosis inhibition. hit rate 0.8% among 300,000. protection from apoptosis, % (test concentration not listed). INS-1E cytokine-induced death, ATP luminescence, 48 h; percent of positive-control rescue, neutral wells zero;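 active = all replicates at 75% or more, or half of them and the mean; inconclusive = half reach 75% but not the mean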;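 also: 0% = cytokine-treated negative control wells and 100% = positive control rescue; higher means more ATP so stronger rescue from cytokine killing; wells of about 40 µL received 100 nL stock; the first replicate is given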
RanGTP-Imp inh – disruptors of Ran-importin-beta complex formation – biochemical, FRET, CFP-Ran, YFP-importin-beta, homogeneous, primary screen; hit rate 1.1% among 300,000; cell-free CFP-Ran/YFP-importin-beta FRET ratio; inhibition, % (no concentration beside the values);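 active = most replicates above 15%; inconclusive = exactly half above 15%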;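 also: 0% = DMSO wells and 100% = Ran loaded with GDP instead of GTP; wells of about 40 µL received 100 nL stock; the first replicate is given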
Vif TR-FRET – HIV-1 Vif–A3G interaction blockers – biochemical, TR-FRET, GST-Vif 1-94, biotin-A3G peptide, dose response retest, primary screen (AID 1117319). TR-FRET GST-Vif / biotin-A3G peptide binding; higher % means a stronger effect; test concentration not given here; strong numbers were not always called active. inhibition, %; hits with a dose series show IC50 in µM. hit rate 0.57% among 260,000;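 active = above the screen mean plus three standard deviations and confirmed in dose response; inconclusive = results disagree or hit not tested in dose response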;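 also: Vif residues 1-94 fused to GST binding biotinylated APOBEC3G peptide 110-148; 0% = full assay without inhibitor and 100% = GST in place of GST-Vif; retest series ran down from 100 µM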
Ecoli rRNA inh OD600 – further read-out of Ecoli rRNA inh, marked with its call; OD600 change, %; measured here: OD600 growth;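 optical density of the mix in the first replicate; 0 = DMSO median and -100 = no signal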
Ecoli rRNA inh RFP – further read-out of Ecoli rRNA inh, marked with its call; RFP signal change, %; measured here: RFP humanized mutant strains;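 first replicate; 0 = DMSO median and -100 = no signal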
An asterisk follows results filed as active; u = inconclusive; x = not tested or not shown.

Start of the data: the first 6 records (preview)
structure	T cruzi inh	A1 inh	Calb FLC	Ecoli rRNA inh	Ecoli rRNA inh OD600	Ecoli rRNA inh RFP	AF4-AF9 inh	Beta apoptosis	RanGTP-Imp inh	Vif TR-FRET
CC(/C=N/NC(=O)Cc1cccs1)=C\c1ccccc1	-6	-0.6	-3	x	x	x	x	-15	-4.7	-7%
CC(C)(C)c1ccc(C(=O)N2CCNC(=O)C2CC(=O)Nc2ccc(F)cc2)cc1 (centres undefined)	13	-1.1	-4	4	5	2.1	-1.5	4	4.6	x
COc1ccc(CCn2c(C)c(C(C)=O)c(C(C)=O)c2C)cc1OC	-6	-0.7	-19	7	8	0.9	-0.2	-5	u	-3%
O=C(/C=C/c1cn(-c2ccccc2)nc1-c1ccc2c(c1)OCCO2)NCCCN1CCOCC1	9	0.3	22	-59	-80	-18	16	5	3.5	-11%
COC(=O)C1CSC(C(=O)OC)N1C(=O)Nc1ccccc1 (centres undefined)	-7	-0.3	-6	x	x	x	x	-7	8.8	0%
N#Cc1ccccc1OCC(=O)Nc1cccc(S(=O)(=O)N2CCCC2)c1	x	-0.8	x	-9	-12	-0.2	1.3	-3	x	-6%

The list itself, from the start:
structure	T cruzi inh	A1 inh	Calb FLC	Ecoli rRNA inh	Ecoli rRNA inh OD600	Ecoli rRNA inh RFP	AF4-AF9 inh	Beta apoptosis	RanGTP-Imp inh	Vif TR-FRET
CC(/C=N/NC(=O)Cc1cccs1)=C\c1ccccc1	-6	-0.6	-3	x	x	x	x	-15	-4.7	-7%
CC(C)(C)c1ccc(C(=O)N2CCNC(=O)C2CC(=O)Nc2ccc(F)cc2)cc1 (centres undefined)	13	-1.1	-4	4	5	2.1	-1.5	4	4.6	x
COc1ccc(CCn2c(C)c(C(C)=O)c(C(C)=O)c2C)cc1OC	-6	-0.7	-19	7	8	0.9	-0.2	-5	u	-3%
O=C(/C=C/c1cn(-c2ccccc2)nc1-c1ccc2c(c1)OCCO2)NCCCN1CCOCC1	9	0.3	22	-59	-80	-18	16	5	3.5	-11%
COC(=O)C1CSC(C(=O)OC)N1C(=O)Nc1ccccc1 (centres undefined)	-7	-0.3	-6	x	x	x	x	-7	8.8	0%
N#Cc1ccccc1OCC(=O)Nc1cccc(S(=O)(=O)N2CCCC2)c1	x	-0.8	x	-9	-12	-0.2	1.3	-3	x	-6%
CCN1CCN(C(=O)C23CCC(C)(C(=O)C2Br)C3(C)C)CC1 (centres undefined)	6	0.4	-10	11	-4	-1.5	x	-6	6.8	20%
O=C1/C(=C/c2ccc(O)cc2)SC(=S)N1Cc1cccnc1	10	-1.2	3	3	-1	1.4	-0.5	0	2.4	0%
CC(C)CCNC(=O)C(C)N(C(=O)Cn1nnc(-c2ccc(F)cc2)n1)C1CCCC1 (centres undefined)	5	-0.1	-1	-33	-45	20	-12	-6	0.2	18%
CC(C)n1nnnc1SCC(=O)N1CCN(Cc2ccc3c(c2)OCCO3)CC1	x	0.4	x	x	x	x	2.8	4	x	-9%
CCOC(=O)c1c(C)[nH]c(C(=O)OCc2csc(CC(=O)Nc3ccccc3C)n2)c1C	10	-0.6	4	0	2	0.6	-19	x	1.9	-7%
Cc1nc(N)sc1C(=O)N/N=C/c1ccco1	-5	-0.9	-5	x	x	x	-5.7	1	-0.5	u
CCN(CC(=O)NCc1ccc(Cl)cc1)C(=O)c1cnc(Cl)c(Cl)c1	0	1.3	1	-4	-12	1.8	-2.2	4	4.6	x
CC1(NC(=O)C2CCCCC2)CCS(=O)(=O)C1 (centres undefined)	-20	1.2	-5	6	1	0.1	-3.1	0	1.4	x
Cc1oc(-c2ccccc2Cl)nc1CN1CCCC1c1ccc(F)cc1 (centres undefined)	31	-0.2	-24	-12	-19	12	0.5	0	-0.7	-8%
O=C(NC1CC1)c1nc2c(nnn2Cc2ccccc2Cl)c(=O)[nH]1	18	0.0	-5	-15	-2	0.6	2.0	1	1.6	-6%
COCCN(CCOC)S(=O)(=O)c1ccc(NC(=O)c2cnccn2)cc1	-4	0.8	-10	4	11	1.6	-13	x	-3.4	x
NS(=O)(=O)c1ccc(N2CCCC2=O)c([N+](=O)[O-])c1	-1	-0.6	23	10	8	3.4	-0.5	x	1.9	-8%
COC(=O)CN1C(=O)N(c2ccccc2)C(N(O)C(=O)Nc2ccccc2)C1(C)C (centres undefined)	-3	-0.3	7	x	x	x	x	1	-2.0	0%
Cc1nn(-c2ccccc2)c(C)c1C(=O)OCC(=O)NC12CC3CC(CC(C3)C1)C2	24	0.4	-23	-32	-47	-2.6	-21	7	-2.3	0%
C=CCN1C(=O)c2ccc(C(=O)N(CCC)CC(=O)Nc3ccccc3C)cc2C1=O	-15	0.7	-7	7	8	-1.3	-19	5	u	0%
O=C(OC1CCOC1=O)c1ccc(CO)cc1 (centres undefined)	-9	-0.6	1	8	15	0.3	-4.4	-4	-0.3	x
COc1ccccc1N1CC(C(=O)OCC(=O)Nc2c(C)cccc2C)CC1=O (centres undefined)	-10	0.1	14	10	13	-0.5	-0.3	1	2.7	5%
O=C(Nc1cccc2ccccc12)c1ccc(OC(=S)N2CCOCC2)cc1	18	-1.0	-8	x	x	x	x	1	-0.1	u
O=C(Nc1ccc(N2CCOCC2)c(Cl)c1)c1ncn[nH]1	-12	-2.2	-4	x	x	x	x	-2	1.1	-4%
CCOc1cccc(C(c2c(C)n(C)n(-c3ccccc3)c2=O)c2c(C)n(C)n(-c3ccccc3)c2=O)c1OC	-10	-0.7	6	12	14	0.1	3.3	-2	-0.3	-1%
O=C(NCc1ccccn1)C1Nc2ccc(OC(F)(F)F)cc2C2C=CCC12 (centres undefined)	1	0.5	3	x	x	x	x	5	2.1	x
Cc1ccc(NC(=O)CN(C)C(=O)Cn2nnc(-c3ccccc3C)n2)cc1	x	-0.1	x	-21	-28	-0.3	-4.9	-3	x	-1%
COC(CNC(=O)Cn1nc(Cc2ccncc2)c2ccccc2c1=O)OC	-5	0.3	7	1	-2	1.6	-0.4	-6	2.4	0%
Cc1nc(CCNC(=O)c2cccs2)cs1	-18	0.0	29	3	-8	-3.2	-2.4	-1	2.3	u
COc1ccc(C)cc1S(=O)(=O)N(CC(=O)NC1CCCC1)c1ccc(F)cc1	-6	-0.1	1	-5	-31	2.5	0.8	-1	1.7	x
C=CCOC(=O)C(C#N)c1nc2ccccc2nc1N1CCN(c2ccccc2OC)CC1 (centres undefined)	24	-1.0	2	x	x	x	x	5	-2.0	12%
Cc1ncc(CN2CCC(N3CCC(C(=O)N4CCCC4)CC3)CC2)s1	-2	0.2	-6	x	x	x	x	-1	6.8	x
COc1ccc(OC)c(S(=O)(=O)N/N=C(/C)c2ccc3c(c2)OCO3)c1	-5	-0.2	23	0	12	-0.6	-0.8	1	0.3	x
COc1cc(C(=O)Nc2ccc(NC(C)=O)cc2)ccc1OCc1ccccc1	-13	0.0	-10	5	15	1.7	-1.2	-12	2.1	u
Cc1ccc(C(=O)N2CCN=C2SCc2ccc([N+](=O)[O-])cc2)cc1	16	-0.3	8	x	x	x	-7.9	3	8.8	x
CCC(C)n1c(C)nc2c(c1=O)c1nc3ccccc3nc1n2CCC1=CCCCC1 (centres undefined)	59*	0.4	-1	x	x	x	x	11	3.7	-1%
COc1ccc(C(O)P(=O)(OC2CCCCC2)c2ccc(N(C)C)cc2)cc1OC (centres undefined)	10	1.1	36	x	x	x	x	4	-0.3	-6%
CCOc1ccccc1CN1CCN(Cc2c[nH]c3ccccc23)CC1CCO (centres undefined)	-5	1.2	7	-1	-2	-1.1	5.4	-1	-4.0	x
CSc1nnc(C)c(=O)n1COC(=O)c1ccc([N+](=O)[O-])cc1	-16	0.6	-1	1	-1	-3.7	2.9	-1	-1.3	8%
Cc1c(Cl)cccc1NC(=O)c1ccc(-n2ccnc2)nc1	-3	-0.1	-14	x	x	x	x	-1	0.1	-5%
COc1ccc(CNC(=O)C2CCN(S(=O)(=O)c3cc(OC)ccc3OC)CC2)cc1	x	0.9	x	-3	2	2.9	x	-3	x	-2%
Cc1cc2cc(CNC(=O)c3ccc(S(=O)(=O)N4CCOCC4)cc3)ccc2[nH]1	0	0.1	-6	-13	8	28	-3.5	-2	-9.2	x
CC(OC(=O)c1ccc2ncsc2c1)C(=O)Nc1ncc(Cl)cc1Cl (centres undefined)	-25	u	7	x	x	x	x	-3	-2.7	-4%
Cc1ccc(C(=O)NCC(=O)O)cc1S(=O)(=O)N1CCCCC1	-10	0.1	10	x	x	x	x	0	3.3	22%
COc1cccc(C(=O)OCCN2CCCCC2)c1	-2	-1.6	-3	x	x	x	x	-5	5.5	-3%
O=C(Nc1cccc(-c2nc3ccccc3s2)c1)c1cc(=O)c2ccccc2o1	8	-0.4	2	10	8	-1.8	0.0	19	3.0	x
Cc1nn(C(C)(C)C)c(OC(=O)c2ccc3c(c2)OCO3)c1S(=O)(=O)c1ccccc1	-7	2.7	-6	x	x	x	x	-3	23	4%
COc1ccc2c(c1)O[C@@H](c1cccc(C(F)(F)F)c1)[C@H](O)C2=O	6	-0.5	-15	x	x	x	x	33	3.1	1%

Assay outcomes: PubChem BioAssay, several laboratories

The list is partial; count on the stated rates, not on these rows.
